Compound activity from PubChem BioAssay.
p53 nuclei: p53 stabilisation in HPV-positive human cells, imaging, p53-positive nuclei imaging, 24 h, 48 h (AID 1508601). p53-positive nuclei imaging, 48 h; hits give high values; some inactives read as strong as hits. p53-positive nuclei, normalised, % at 11 µM unless noted. hit rate 1% among 5,700;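 active means mean of two plates above 50% at 24 h or at 48 h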;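 further: HPV-positive HeLa cells with a fluorescent p53 stability reporter; 0% = vehicle and 100% = proteasome inhibitor control; doses worked out from stocks diluted about 900-fold with the highest of each compound shown; many of its hits are not listed in these tables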
p53 nuclei cells 24 h: also measured in p53 nuclei; calls as there; nuclei count, normalised, %; measured here: cell number at 24 h;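 100% = vehicle wells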
p53 nuclei p53 24 h: recorded beside p53 nuclei, whose call it bears; p53-positive nuclei, normalised, %; measured here: p53 positive nuclei at 24 h;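 0% = vehicle and 100% = positive control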
p53 nuclei cells 48 h: recorded beside p53 nuclei, whose call it bears; nuclei count, normalised, %; measured here: cell number at 48 h;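 100% = vehicle wells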
The depositor's hits bear a star; [ ] = dose if it differs, or a comment. This is a subset; count on the stated rates, not on these rows.

The first 2 compounds, to show the layout:
SMILES | p53 nuclei | p53 nuclei cells 24 h | p53 nuclei p53 24 h | p53 nuclei cells 48 h
OCC1OC(n2cnc3c2NC=NCC3O)CC1O (stereo unspecified) | -0.1 | 117.4 | -0.1 | 114.0
Cc1c(Cc2ccccc2)c(=O)oc2cc(O)ccc12 | -0.1 | 82.1 | -0.1 | 82.4

The listing, from the first entry:
SMILES | p53 nuclei | p53 nuclei cells 24 h | p53 nuclei p53 24 h | p53 nuclei cells 48 h
OCC1OC(n2cnc3c2NC=NCC3O)CC1O (stereo unspecified) | -0.1 | 117.4 | -0.1 | 114.0
Cc1c(Cc2ccccc2)c(=O)oc2cc(O)ccc12 | -0.1 | 82.1 | -0.1 | 82.4
CCOC(=O)NC1CCC2C(C1)CC1C(=O)OC(C)C1C2C=Cc1ccc(-c2cccc(F)c2)cn1 (stereo unspecified) | -0.2 | 104.6 | 0.2 | 106.8
NS(=O)(=O)Cc1noc2ccccc12 | 0.1 | 113.9 | -0.1 | 107.8
CCCCCC=CC(=O)CCc1ccc(O)c(OC)c1 | -0.1 | 93.4 | -0.1 | 99.2
O=C1CN(N=Cc2ccc(-c3ccc([N+](=O)[O-])cc3)o2)C(=O)N1 | 0.0 | 94.2 | 0.1 | 94.9
O=c1[nH]cnc2c1ncn2C1OC(CO)C(O)C1O (stereo unspecified) | -0.2[3.7 µM] | 111.1 | -0.5 | 112.2
CNC(=O)C(Cc1c[nH]c2ccccc12)NC(=O)C(CC(=O)NO)CC(C)C (stereo unspecified) | -0.2[3.7 µM] | 112.2 | -0.4 | 104.0
CCCN1CCCCC1C(=O)Nc1c(C)cccc1C (stereo unspecified) | 0.0[3.7 µM] | 109.8 | -0.2 | 108.8
Cc1cccc(Nc2ccncc2S(=O)(=O)NC(=O)NC(C)C)c1 | 0.1 | 110.7 | 0.2 | 113.0
CC(C)OC(=O)N1CCC(Oc2ncnc3c2cnn3-c2ccc(S(C)(=O)=O)cc2F)CC1 | -0.2 | 101.7 | 0.1 | 105.9
Ic1cccc(CSc2nnc(-c3ccncc3)o2)c1 | 0.0 | 99.2 | 0.0 | 102.2
Cc1ccc(NC(=O)c2cccc(N(C)C)c2)cc1NC(=O)c1ccc(O)cc1 | -0.1 | 110.3 | 0.1 | 108.9
C[N+](C)(C)CC(O)CC(=O)O (stereo unspecified) | -0.1[3.7 µM] | 91.4 | -0.4 | 88.4
COc1ccccc1Oc1c(NS(=O)(=O)c2ccc(C)cn2)nc(-c2ccncc2)nc1OC | -0.2 | 115.8 | -0.2 | 105.9
CCC(C)C(=O)OC1CC(C)C=C2C=CC(C)C(CCC3CC(O)CC(=O)O3)[C@H]21 (stereo partly specified) | -0.1[3.7 µM] | 118.9 | -0.1 | 124.0
O=C1NCCc2[nH]c(-c3ccncc3)cc21 | 47.2 | 36.8 | 4.4 | 25.6
OC1CO[C@H]2C(O)CO[C@H]12 (stereo partly specified) | -0.2[3.7 µM] | 114.5 | -0.3 | 108.5
CCOCC(O)COc1ccc(NC(=O)CC[S+](C)C)cc1 (stereo unspecified) | -0.1[3.7 µM] | 114.8 | -0.2 | 113.1
COc1cc2c(cc1Cc1cccc(Cl)c1F)c(=O)c(C(=O)O)cn2C(CO)C(C)C (stereo unspecified) | 0.3[3.7 µM] | 116.4 | 0.3 | 116.7
COc1ccc(CNC(=O)c2sc3nc(C)cc(C)c3c2N)cc1 | 0.2 | 102.0 | 0.0 | 95.2
CNC(=C[N+](=O)[O-])NCCSCc1csc(CN(C)C)n1 | -0.4[3.7 µM] | 114.3 | -0.5 | 105.2
Oc1c(Br)cc(Br)c2cccnc12 | 0.0[3.7 µM] | 117.9 | -0.2 | 112.4
C=C1CC[C@H]2[C@@](C)(CCC(O)[C@@]2(C)CO)C1CC=C1C(=O)OCC1O (stereo partly specified) | -0.1[3.7 µM] | 90.6 | -0.3 | 97.7
Cc1ccc(Sc2cncc3sc(C(N)=O)cc23)cc1 | -0.4[3.7 µM] | 104.4 | -0.5 | 118.7

Ordered by length of the SMILES (low to high): some entries from above
SMILES | p53 nuclei | p53 nuclei cells 24 h | p53 nuclei p53 24 h | p53 nuclei cells 48 h
NS(=O)(=O)Cc1noc2ccccc12 | 0.1 | 113.9 | -0.1 | 107.8
CCCCCC=CC(=O)CCc1ccc(O)c(OC)c1 | -0.1 | 93.4 | -0.1 | 99.2
CNC(=C[N+](=O)[O-])NCCSCc1csc(CN(C)C)n1 | -0.4[3.7 µM] | 114.3 | -0.5 | 105.2
O=C1CN(N=Cc2ccc(-c3ccc([N+](=O)[O-])cc3)o2)C(=O)N1 | 0.0 | 94.2 | 0.1 | 94.9
CCC(C)C(=O)OC1CC(C)C=C2C=CC(C)C(CCC3CC(O)CC(=O)O3)[C@H]21 (stereo partly specified) | -0.1[3.7 µM] | 118.9 | -0.1 | 124.0
CCOC(=O)NC1CCC2C(C1)CC1C(=O)OC(C)C1C2C=Cc1ccc(-c2cccc(F)c2)cn1 (stereo unspecified) | -0.2 | 104.6 | 0.2 | 106.8

Further compounds
SMILES | p53 nuclei | p53 nuclei cells 24 h | p53 nuclei p53 24 h | p53 nuclei cells 48 h
Cc1cccc(C)c1OCC(=O)NC(Cc1ccccc1)C(O)CC(Cc1ccccc1)NC(=O)C(C(C)C)N1CCCNC1=O (stereo unspecified) | -0.5[3.7 µM] | 114.9 | -0.1 | 107.7
O=C(c1ccccc1)c1ccc2nc(NC(=O)c3csc(C4CCN(c5ncnc6ccsc56)CC4)n3)[nH]c2c1 | 0.1[3.7 µM] | 112.8 | -0.3 | 106.9
COc1ccc2c(c1)c(C1=C(c3c[nH]c4ccccc34)C(=O)NC1=O)cn2CCCN(C)C | -0.3[3.7 µM] | 109.2 | -0.5 | 103.9
COc1ccccc1C(Cn1c(=O)n(C(C)(C)C(=O)O)c(=O)c2c(C)c(-c3ncco3)sc21)OC1CCOCC1 (stereo unspecified) | 0.1 | 108.5 | 0.2 | 124.4
Cc1cn(-c2cc(NC(=O)c3ccc(C)c(Nc4nccc(-c5cccnc5)n4)c3)cc(C(F)(F)F)c2)cn1 | 0.0 | 78.6 | -0.1 | 71.3
O=C1NC(=O)C(=Cc2ccc3nccc(-c4ccncc4)c3c2)S1 | -0.1 | 105.0 | -0.1 | 102.3
CC(C)(Oc1ccc(Cl)cc1)C(=O)OCCOC(=O)c1cccnc1 | -0.2[3.7 µM] | 108.7 | -0.3 | 105.2
NC(N)=NN=Cc1ccc(Cl)c(Cl)c1 | 0.1 | 84.6 | 0.1 | 95.8
COc1ccc(S(=O)(=O)N(C(C)=O)c2ccccc2C=Cc2cc[n+]([O-])cc2)cc1 | 3.7 | 39.9 | 0.7 | 26.1
CC1=C(C(=O)OC2CCCCC2)C(c2ccc([N+](=O)[O-])cc2)C2=C(CC(C)(C)CC2=O)N1 (stereo unspecified) | 0.0[3.7 µM] | 98.7 | -0.3 | 101.5
COc1cc(C=CC(=O)C=C(O)C=Cc2ccc(O)c(OC)c2)ccc1O | -0.1[3.7 µM] | 101.7 | -0.1 | 98.0
c1ccc(C(NCCNC(c2ccccc2)c2ccccc2)c2ccccc2)cc1 | -0.1 | 80.5 | 0.0 | 85.1
CCCCCCCCCCCCCCCc1cccc(O)c1C(=O)O | -0.6 | 115.6 | 0.0 | 115.6
CCN(CC)c1ccc(C=NNC(=O)c2ccc(O)cc2)cc1 | 1.0 | 79.3 | 0.9 | 83.6
CCN1C(=CC(C)=O)Sc2ccc(OC)cc21 | -0.1 | 105.4 | -0.1 | 100.9
CCn1c(=O)c(-c2ccc(-c3cncs3)cc2Cl)cc2cnc(Nc3ccc(N4CCN(C)CC4)cc3)nc21 | -0.1 | 106.7 | -0.1 | 117.1
C=CC(=O)Nc1ccc(C(=O)c2sc(Nc3ccc(N4CCN(C)CC4)cc3OC)nc2N)cc1 | 0.0 | 65.1 | 0.1 | 66.7
O=[N+]([O-])c1cn2c(n1)OCC(OCc1ccc(OC(F)(F)F)cc1)C2 (stereo unspecified) | -0.4[3.7 µM] | 110.4 | -0.2 | 103.1
COc1ccc(C(C)=O)c(O)c1 | -0.2[3.7 µM] | 102.6 | -0.3 | 102.5
COc1nc(N)nc2c1ncn2C1OC(CO)C(O)C1O (stereo unspecified) | -0.6[3.7 µM] | 93.4 | -0.2 | 95.8
CC(C)CC(CC(=O)NO)C(=O)NC(Cc1ccc2ccccc2c1)C(=O)NC(C)C(=O)NCCN (stereo unspecified) | 0.0[3.7 µM] | 109.3 | -0.2 | 103.9
N#CC1CCCN1C(=O)CNC12CC3CC(CC(O)(C3)C1)C2 (stereo unspecified) | -0.3[3.7 µM] | 113.0 | -0.6 | 110.1
Cc1cc(C)nc(NS(=O)(=O)c2ccc(N)cc2)n1 | 0.0[3.7 µM] | 107.4 | -0.2 | 108.2
CC(c1ncncc1F)[C@](O)(Cn1cncn1)c1ccc(F)cc1F (stereo partly specified) | -0.6[3.7 µM] | 105.9 | -0.3 | 101.9
O=C(NCC1(c2nc(-c3ccccc3)cs2)CCOCC1)c1cccc(-c2noc(C(F)(F)F)n2)c1 | 0.2 | 104.0 | -0.2 | 104.3
(listing goes on)
SMILES | p53 nuclei | p53 nuclei cells 24 h | p53 nuclei p53 24 h | p53 nuclei cells 48 h
COC(=O)N1C(=O)[C@](c2ccccc2)(C2CCCC2)N1C(=O)OC | 0.1 | 90.1 | 0.0 | 96.9
CNC(=O)Nc1ccc(-c2nc(N3CC4CCC(C3)O4)c3cnn(C4CCC5(CC4)OCCO5)c3n2)cc1 | 0.2 | 82.8 | 0.1 | 68.8
CC(C(=O)O)c1ccc2c(c1)[nH]c1ccc(Cl)cc12 (stereo unspecified) | -0.1 | 98.3 | 0.1 | 104.3
COC(=O)C(Cc1ccccc1)NC(=O)C(N)CC(=O)O (stereo unspecified) | -0.1[3.7 µM] | 100.9 | -0.1 | 94.9
c1cc2c(cc1C1CCCCC1)c1c3n2CCNC3CCC1 (stereo unspecified) | 0.7 | 56.6 | 1.8 | 63.2
CCN1CCCC1CNC(=O)c1cc(S(=O)(=O)CC)c(N)cc1OC (stereo unspecified) | -0.1[3.7 µM] | 109.2 | -0.2 | 100.4
CCCNC(C)C(=O)Nc1ccccc1C (stereo unspecified) | 0.0[3.7 µM] | 107.8 | -0.5 | 102.7
CN(C)CCSSCCNC(=O)C1CCN(C(=O)CSc2ccc(Cl)cc2)CC1 | -0.2[3.7 µM] | 105.5 | -0.4 | 101.5
Cc1c(OCC(F)(F)F)ccnc1CS(=O)c1nc2ccccc2[nH]1 (stereo unspecified) | -0.4[3.7 µM] | 109.6 | -0.3 | 100.4
Cc1ccc(S(=O)(=O)NC(=O)NN2CC3CCCC3C2)cc1 (stereo unspecified) | -0.1 | 89.6 | -0.1 | 96.6
CC(C)CC(NC(=O)C(Cc1ccccc1)NC(=O)c1cnccn1)B(O)O (stereo unspecified) | 105.5*[3.7 µM] | 47.9* | 124.7* | 41.9*
Brc1c(NC2=NCCN2)ccc2nccnc12 | -0.1[3.7 µM] | 97.5 | -0.2 | 99.2
CN(C)CCC=C1c2ccccc2CCc2ccccc21 | -0.1[3.7 µM] | 111.3 | -0.3 | 107.2
CCCCCCOC(=O)N=C(N)c1ccc(NCc2nc3cc(C(=O)N(CCC(=O)OCC)c4ccccn4)ccc3n2C)cc1 | 0.2[3.7 µM] | 106.0 | -0.1 | 95.8
O=C1COc2c(CCNCCN(C(=O)CCNCCc3ccc(Cl)c(Cl)c3)C3CCCCC3)ccc(O)c2N1 | -0.2 | 102.5 | -0.1 | 103.8
CCC(CO)Nc1nc(NCc2ccccc2)c2ncn(C(C)C)c2n1 (stereo unspecified) | 2.0 | 57.9 | -0.1 | 43.4
Cn1c2cc(S(C)=O)sc2c2cnn(Cc3cccc(N)c3)c(=O)c21 (stereo unspecified) | 0.0 | 113.3 | -0.2 | 109.4
O=C(CSc1nc2ccccc2s1)N1CCCc2ccccc21 | -0.1 | 108.4 | 0.0 | 109.8
COc1ccc2c(c1)c(CC(=O)N1CCOCC1)c(C)n2C(=O)c1ccc(Cl)cc1 | -0.2[3.7 µM] | 89.4 | -0.4 | 92.6
Cc1cc(SCc2sc(-c3ccc(C(F)(F)F)cc3)nc2C)ccc1OCC(=O)O | 0.0 | 101.9 | 0.2 | 101.3
CCNC(=O)c1noc(-c2cc(C(C)C)c(O)cc2O)c1-c1ccc(CN2CCOCC2)cc1 | 0.7 | 58.1 | 0.7 | 36.8
O=C(NS(=O)(=O)c1ccc(Br)s1)c1ccc(Cl)cc1Cl | -0.1[3.7 µM] | 98.9 | -0.3 | 91.3
CCOC(=O)c1[nH]c2cc(Cl)ccc2c1C(C(=O)NC(C)(C)C)N(C=O)Cc1ccc(Cl)cc1 (stereo unspecified) | -0.2[3.7 µM] | 89.4 | -0.4 | 91.3
CN(CC(=O)N(Cc1ccc(C2CCCCC2)cc1)c1ccc(C(=O)O)cc1)S(=O)(=O)c1c(F)c(F)c(F)c(F)c1F | 0.0 | 38.5 | 0.0 | 25.9
C=CC(=O)Nc1ccc2ncnc(Nc3cccc(Br)c3)c2c1 | -0.2[3.7 µM] | 118.4 | -0.3 | 118.0
CCc1cccc2c3c([nH]c12)[C@](CC)(CC(=O)O)OCC3 | -0.2[3.7 µM] | 120.4 | -0.6 | 112.1
